GIV-Gai inh: GIV-Galpha-i interaction inhibition; P08753; 210,000 compounds, 0.42% hits; AID 1224905; percent of control (FP), % (concentration not given with the values); Galpha-i3/FITC-GIV peptide fluorescence polarization, 90 min; active compounds read low; scaled: aluminum fluoride 0%, vehicle 100%;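 active = replicate mean at 85% of control or lower, very high polarization wells dropped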;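 note: wells of about 15 µL received 100 nL stock; the first replicate is given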
Target sequence (P08753 whole entry, looked up): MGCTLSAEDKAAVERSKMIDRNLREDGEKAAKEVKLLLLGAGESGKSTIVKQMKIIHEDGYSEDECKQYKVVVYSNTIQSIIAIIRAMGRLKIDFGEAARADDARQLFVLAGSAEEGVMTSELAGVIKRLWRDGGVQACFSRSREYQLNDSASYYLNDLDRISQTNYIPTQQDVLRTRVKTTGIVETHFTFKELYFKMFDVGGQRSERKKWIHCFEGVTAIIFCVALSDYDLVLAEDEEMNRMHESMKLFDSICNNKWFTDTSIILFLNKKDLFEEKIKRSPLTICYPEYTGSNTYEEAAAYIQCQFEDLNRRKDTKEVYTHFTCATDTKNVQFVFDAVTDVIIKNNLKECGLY
* marks the source's active call; other numbers are inactive results. An excerpt. The share of hits here may be higher or lower than overall.

GIV-Gai inh,Structure
108,Cn1c2c(c(=O)[nH]c1=O)C(c1ccc(OCc3ccccc3)cc1)C1=C(N2)c2ccccc2C1=O (centres undefined)
103,Cc1nc(-c2ccc(S(=O)(=O)N3CCN(c4ccc(N5CCOCC5)nn4)CC3)cc2)co1
140,COc1ccc([C@@H]2[C@@H](C(=O)c3ccccc3)N3c4ccccc4C=C[C@@H]3C2(C#N)C#N)cc1
101,N#CC1=CN(c2ccc(F)cc2Cl)c2cc(Cl)ccc2S1(=O)=O
110,NC(=S)NN=C1c2cc(OCCN3CCCCC3)ccc2-c2ccc(OCCN3CCCCC3)cc21
104,Cc1ccn2c(=O)cc(COc3ccccc3NC(=O)Nc3cccc(Cl)c3)nc2c1
104,COCCNC(=O)C(C)C1CCN(S(=O)(=O)c2ccc(Br)s2)CC1 (centres undefined)
101,CCOC(=O)C1=C(C)NC2=C(C(=O)C(C(=O)OCC)C(c3ccccc3OC)C2)C1c1ccc(OCC)cc1 (centres undefined)
110,CC1=NN(c2ccccc2)C(=O)C1/C(=N\NC(=O)c1ccccc1)c1ccc(Br)cc1 (centres undefined)
104,CC(C)(c1cc(CN2CCCCC2)c(O)c(CN2CCCCC2)c1)c1cc(CN2CCCCC2)c(O)c(CN2CCCCC2)c1
101,CCOC(=O)c1sc(NC(=O)CSc2n[nH]c(CC)n2)nc1C
101,Cc1ccccc1NS(=O)(=O)c1cc(-c2nc(C)c(C)s2)sc1C
102,Cc1ccc(-c2ccc(C3Nc4ccc5ccccc5c4C4=C3C(=O)CC(C)(C)C4)o2)cc1Cl (centres undefined)
123,CCCCOc1ccc(C2C(N3C(=O)c4ccccc4C3=O)C(=O)N2c2ccc(Cl)cc2C)cc1 (centres undefined)
105,Cc1ccc(Cl)cc1NC(=O)N1CCCC(C)(C(=O)NCc2ccc(F)cc2)C1 (centres undefined)
108,CCc1onc(C)c1C1CCCN1Cc1cc(Br)ccc1F (centres undefined)
102,Cn1c(CNS(=O)(=O)c2ccc(F)cc2)nc2cccnc21
209,CC(C)(C)c1ccc(Oc2cc(O)c3c4c(onc24)-c2ccccc2C3=O)cc1
107,C1=C[C@H]2c3cc(C45CC6CC(CC(C6)C4)C5)ccc3N[C@@H](c3cccnc3)[C@H]2C1
103,CC1CC(C)CN(S(=O)(=O)c2ccc(Sc3ccc(Br)cc3)c(C(=O)NCCN3CCOCC3)c2)C1 (centres undefined)

Arranged by length of the SMILES (largest number first): 3 of the compounds above.
GIV-Gai inh,Structure
101,CCOC(=O)C1=C(C)NC2=C(C(=O)C(C(=O)OCC)C(c3ccccc3OC)C2)C1c1ccc(OCC)cc1 (centres undefined)
107,C1=C[C@H]2c3cc(C45CC6CC(CC(C6)C4)C5)ccc3N[C@@H](c3cccnc3)[C@H]2C1
123,CCCCOc1ccc(C2C(N3C(=O)c4ccccc4C3=O)C(=O)N2c2ccc(Cl)cc2C)cc1 (centres undefined)

Later entries
GIV-Gai inh,Structure
103,CCCc1ccc(OCc2nc(-c3ccc(NC(=O)c4ccco4)cc3)no2)cc1
105,O=C(Nc1cc(-c2ccsc2)no1)c1ccc(Cl)s1
106,O=c1ccn(-c2cccc(F)c2)nc1-c1nc(-c2cccc(F)c2)no1
97,CCC(C(=O)N1CCN(c2ccccn2)CC1)n1nc(C)c2nn(-c3ccccc3)c(C)c2c1=O (centres undefined)
115,O=C1N=C(N2CCN(C3=NC(=O)/C(=C/c4ccc5c(c4)OCO5)S3)CC2)S/C1=C\c1ccc2c(c1)OCO2
107,COc1cccc(NC2(c3nnnn3-c3ccc(C)cc3)CCCC2)c1
110,Cc1ccc(-c2cncc(C(=O)NC(C)(C)C)c2)cc1
119,Cc1ccc(NC(=O)c2c(NC(=O)C(F)(F)F)sc3c2CCC3)c(C)c1
107,Cc1nn(-c2nc3ccccc3[nH]2)c(=O)c2ccccc12
101,CCOC(=O)c1ccccc1NC(=O)CSc1nccn1-c1cc(C)ccc1OC
97,O=S(=O)(NCC1CCCO1)c1ccc(-c2ccno2)s1 (centres undefined)
102,COc1ccc(NC(=O)c2cn(-c3cc(-c4noc(C)n4)ccc3C)nc2C)cc1
108,COc1cc(C=Nc2c(C)n(C)n(-c3ccccc3)c2=O)cc(OC)c1OC(C)=O
113,Cc1cccc(Cn2cccc(S(=O)(=O)N3CCC(C)CC3)c2=O)c1
108,CCCS(=O)(=O)Nc1ccc(Nc2nc(C)cc(N(CC)CC)n2)cc1
111,CCC(=O)Nc1ccc(C(=O)N2CCCC(C(=O)NCCC(C)C)C2)cc1 (centres undefined)
108,CCCCn1c(CNC(=O)c2ccccc2F)nnc1SCC(=O)Nc1sc2c(c1C(=O)OCC)CCC2
107,CCOC(=O)C1=C(O)/C(=C/c2ccc(O)cc2)SC1=Nc1ccccc1
104,Cc1nc(-c2ccc(C)c(S(=O)(=O)NCC(=O)Nc3cc(Cl)ccc3C)c2)no1
105,O=C(c1ccc(F)cc1F)N1CCN(c2cc(N3CCCCC3)c(F)cc2[N+](=O)[O-])CC1
107,CCOC(=O)c1ccc(NC(=O)CSc2nc3cc(C(=O)OC)ccc3c(=O)n2CCN2CCOCC2)cc1
100,Cc1ccc(-c2nc3sc(CCNS(=O)(=O)c4c(C)cc(C)cc4C)c(C)n3n2)cc1
112,COc1ccccc1N1CC(O)(c2ccc(OC(F)F)cc2)[N+]2=C1SCCC2 (centres undefined)
108,CCc1onc(C)c1C1CCCN1Cc1cccc(OC)c1O (centres undefined)
102,Cn1ncc(N2CCC(C(=O)N3CCC4(CC3)OCCO4)CC2)cc1=O
103,CCc1nc(-c2csc(S(=O)(=O)N3CCC(C(=O)Nc4ccc(OC)cc4)CC3)c2)no1
106,CC1(C)CC(=O)c2cc3c(N)c(C(=O)Nc4ccc(Cl)c(Cl)c4)sc3nc2C1
102,CCOC(=O)C(NC(=O)c1ccc(F)cc1)(Nc1sc2c(c1C#N)CCC(C)C2)C(F)(F)F (centres undefined)
105,COc1cc(/C=C2/C(=O)N(c3ccc(Cl)c(C(=O)O)c3)N=C2C)ccc1OC(=O)c1cccs1
109,O=C1c2ccccc2C(=O)N1CC1c2ccccc2CCN1S(=O)(=O)c1ccc(OC(F)(F)F)cc1 (centres undefined)
103,O=C(CSc1nc2c(sc3ccccc32)c(=O)n1C1CCCCC1)NCc1ccccc1
102,Cc1ccc(-c2n[nH]c3c2C(c2ccc(C(C)C)cc2)N(c2ccc(F)cc2)C3=O)cc1 (centres undefined)
99,O=C(CC1CCCC1)NCc1c(-c2ccccc2)nc2n1CCS2
106,Cc1ccc(C2(O)CN(c3ccccc3C)C3=[N+]2CCS3)cc1 (centres undefined)
104,CC(C)c1ccc(NC(=O)c2cccn3c(Cc4ccccc4)nnc23)cc1
115,Cn1c(=O)c2nc(S(=O)(=O)CCC(=O)Nc3ccc(F)c(F)c3)n(C)c2n(C)c1=O
113,CCC(CC)C(=O)Nc1cc(Cl)ccc1OCc1cc(=O)n2oc(C)cc2n1
105,Cc1ccc(NC(=O)c2sc3ncn(CC(=O)Nc4ccc(C)c(Cl)c4)c(=O)c3c2C)c(Br)c1
102,CN1C(=O)N(C)C2(c3ccccc3)Nn3c(s/c(=C/c4ccccc4Br)c3=O)=NC12c1ccccc1 (centres undefined)
106,CC(=O)C1=NN(c2ccc([N+](=O)[O-])cc2)C2(S1)c1ccccc1C(c1ccc(C(C)C)cc1)=NN2c1ccccc1 (centres undefined)
101,CC(C)(C)c1ccc(-c2nnc3s/c(=C\c4ccccc4Cl)c(=O)n23)cc1
99,Cc1nc2cc(-c3noc(/C=C/c4ccccc4)n3)ccc2o1
100,CCOC(=O)NC(Nc1ccccn1)(C(=O)OCC)C(F)(F)F (centres undefined)
101,CCc1cc(C2CCCN2C(=O)Nc2sc3c(c2C(=O)OC)CCCC3)on1 (centres undefined)
102,COCC(=O)N[C@H]1C[C@@H](CO)N(Cc2ccc(Br)o2)C1
105,N#CC1=C(N)n2c(s/c(=C\c3ccc(F)cc3)c2=O)=C(C#N)C1c1ccc(F)cc1 (centres undefined)
100,COCCNC(=O)CSc1nc2ccccc2nc1Cc1ccccc1
109,CC(C)n1c(SCC(=O)c2ccc3c(c2)CCCO3)nnc1-c1ccc2c(c1)OCCCO2
105,COc1ccc(C2OCC3C(C)C=C(C)C2C3C)cc1 (centres undefined)
105,CCC1(CC)NC(=S)N(c2ccccc2)N1
104,CCOc1ccc(-n2nnnc2CNC(=O)Nc2cccc(Cl)c2)cc1
106,CCOC(=O)c1c(NC(=O)c2cc(S(=O)(=O)N3CCCC3)ccc2OC)sc2c1CCCC2
103,COc1cc2c(cc1OC)CN(S(=O)(=O)c1ccc3c(c1)C(=O)Nc1cc(Cl)ccc1O3)CC2
108,COc1ccc(OC)c(NC(=O)c2sc3ncn(CC(=O)Nc4cccc(C(F)(F)F)c4)c(=O)c3c2C)c1
101,CCc1cc2c(Nc3ccc(OC)cc3OC)ncnc2s1
144,CC(C)(C)OC(=O)N1CC=C2C(C#N)=C(N)C(C#N)(C#N)C(c3ccc(Cl)cc3)C2C1 (centres undefined)
112,O=c1nc(NCc2ccccc2)ccn1-c1nc(-c2ccccc2)oc1-c1ccccc1
107,COc1ccc(/C=C2\SC(=Nc3cccc4ccccc34)NC2=O)c(OC)c1
110,CCOC(=O)c1sc(NC(=O)C(C)Sc2nnc(CNC(=O)c3ccccc3OC)n2C)c(C(=O)OCC)c1C (centres undefined)
97,Cc1nc(-c2cc(S(=O)(=O)Nc3ccc(F)c(F)c3)c(C)s2)sc1C

Four records drawn at random from the list so far:
GIV-Gai inh,Structure
97,Cc1nc(-c2cc(S(=O)(=O)Nc3ccc(F)c(F)c3)c(C)s2)sc1C
105,N#CC1=C(N)n2c(s/c(=C\c3ccc(F)cc3)c2=O)=C(C#N)C1c1ccc(F)cc1 (centres undefined)
100,CCOC(=O)NC(Nc1ccccn1)(C(=O)OCC)C(F)(F)F (centres undefined)
112,O=c1nc(NCc2ccccc2)ccn1-c1nc(-c2ccccc2)oc1-c1ccccc1

(list continues)
GIV-Gai inh,Structure
103,Cc1ccc(CSc2nccc3c2ccn3CC(=O)NCCC2=CCCCC2)cc1
101,O=c1oc2ccc(Cl)cc2cc1-c1csc(Nc2ccc(Oc3ccc(Cl)cc3)cc2)n1
109,COc1ccccc1N1CCN(c2ncc(NC(=O)c3ccc(C)cc3)cc2C(=O)O)CC1
100,Cc1nc(CNC(=O)[C@H]2CSCN2S(=O)(=O)c2cccc(Cl)c2)cs1
106,O=C(Nc1ccc(S(=O)(=O)N2CCCCC2c2cccnc2)cc1)c1ccc([N+](=O)[O-])cc1 (centres undefined)
100,CC(=O)Nc1ccc2nc(NC(=O)c3ccc(S(=O)(=O)N(C)C4CCCCC4)cc3)sc2c1
106,CCCCCOC(=O)c1c(C)oc2ccc(NS(=O)(=O)c3ccc4c5c(cccc35)C(=O)N4)cc12
93,CCc1onc(C)c1C1CCCN1C(=O)c1c(Cl)cnn1CC (centres undefined)
108,O=c1c2cc3c(cc2nc(SCc2nc(-c4ccc(Cl)cc4)no2)n1CC1CCCO1)OCO3 (centres undefined)
108,CC1CCC(NS(=O)(=O)c2ccc3[nH]c(=O)[nH]c3c2)CC1 (centres undefined)
109,CC1(C)CC(=O)C2=C(C1)c1c(ccc3ccccc13)NC2c1ccc(OC(=O)c2ccccc2)cc1 (centres undefined)
103,CC1CCN(S(=O)(=O)c2nn(C(C)C)cc2C(=O)O)CC1
116,Cc1ccc(C2(c3ccc(C)cc3)CC2C(=O)Nc2cccc(Cl)c2)cc1 (centres undefined)
103,Cc1nn(CC(=O)N2CCCC2)c(C)c1S(=O)(=O)N1CCC(C(=O)N2CCc3ccccc3C2)CC1
105,O=c1ccc(-c2ccc3c(c2)OCO3)nn1CCc1nc(-c2ccc(F)c(Br)c2)no1
110,CCCCCc1nnc2n1N=C(c1ccc(Cl)cc1)CS2
107,O=C(CCc1nc(-c2ccc(S(=O)(=O)N3CCOCC3)cc2)no1)N1CCc2ccccc21
102,COc1cccc2cc(-c3nc(-c4cccs4)cs3)c(=O)oc12
100,CC(C)CC(=O)N1CCCC(c2nc(CNC(=O)C(C)C)cs2)C1 (centres undefined)
104,O=C(NC1CCCc2ccccc21)c1cccc(-c2ccc(N3CCOCC3)nn2)c1 (centres undefined)

A different layout for part of the listing above:
Compound | GIV-Gai inh
COc1ccccc1N1CCN(c2ncc(NC(=O)c3ccc(C)cc3)cc2C(=O)O)CC1 | 109
Cc1nc(CNC(=O)[C@H]2CSCN2S(=O)(=O)c2cccc(Cl)c2)cs1 | 100
O=C(Nc1ccc(S(=O)(=O)N2CCCCC2c2cccnc2)cc1)c1ccc([N+](=O)[O-])cc1 (centres undefined) | 106
CC(=O)Nc1ccc2nc(NC(=O)c3ccc(S(=O)(=O)N(C)C4CCCCC4)cc3)sc2c1 | 100
CCCCCOC(=O)c1c(C)oc2ccc(NS(=O)(=O)c3ccc4c5c(cccc35)C(=O)N4)cc12 | 106

The list goes on:
GIV-Gai inh,Structure
107,CC1=NN(C(=O)c2ccccc2Cl)C(O)(c2ccc(Cl)cc2)C1 (centres undefined)
103,CC(C)(C)c1ccc(C(=O)N(CCc2ccccc2)C2CCS(=O)(=O)C2)cc1 (centres undefined)
108,O=C1CN(Cc2ccccc2)S(=O)(=O)c2ccccc2N1Cc1ccccc1
104,Cc1cc(C2CCCN2C(=O)Nc2ccccc2)on1 (centres undefined)
130,CCCc1cc(C2CCCN2C(=O)c2cnn3cc(Br)cnc23)no1 (centres undefined)
101,CCOC(=O)C(NC(=O)c1ccc(F)cc1)(Nc1sc2c(c1C#N)CCCC2)C(F)(F)F (centres undefined)
121,COc1ccc(OC)c(NC(=O)c2ccc3c(=O)n(Cc4cccc(Br)c4)c(=S)[nH]c3c2)c1
105,Cc1ccc(-c2n[nH]c3c2C(c2ccccc2Cl)N(c2ccc(F)cc2)C3=O)cc1 (centres undefined)
101,O=C(C1CCN(S(=O)(=O)c2ccc3[nH]c(=O)ccc3c2)CC1)N1CCN(c2ccccc2)CC1
98,Cc1cc(OCC(=O)Nc2ccc3c(c2)OCO3)nc(N2CCCC2)n1
103,O=C(Nc1ccc(F)c(Cl)c1)c1sc2ncccc2c1-n1cccc1
107,CC1(C)CN(CC(=O)N2CCCC2)c2ccc(S(=O)(=O)N3CCCCC3)cc21
105,O=C(N/C(=C\c1ccccc1)C(=O)N1CCN(CCO)CC1)c1ccccc1

Source: PubChem
